Source: PubChem (National Center for Advancing Translational Sciences (NCATS))
VACV mCherry inh – inhibitors of vaccinia virus infection (mCherry reporter signal); Vaccinia virus mCherry reporter infection, fluorescence; about a quarter of the inactives have no number; Potency, µM (titrated, usually from 36.5 µM), without a hit: top-dose activity change, negative = inhibition, actives largely listed as inhibitors; actives 0.63% (n = 310,000); AID 720579; active = well fitted inhibition curve with a large enough effect; inconclusive = small, poorly fitted or top-dose-only effect; inactive = no such curve, though single readings can be large or run the other way; tested in A549 cells; further: nearly all actives have a fitted effect of over 35% in size; inactives centre near -10
Vaccinia Venus – inhibitors of vaccinia virus (Venus reporter). Vaccinia virus Venus reporter expression, fluorescence. actives 0.46% (n = 330,000). Potency, µM (titrated, usually from 36.5 µM), inactives show at the highest dose activity change, negative = inhibition, actives largely listed as inhibitors. AID 720580; active means well fitted inhibition curve with a large enough effect; inconclusive means small, poorly fitted or top-dose-only effect; inactive means no such curve, though single readings can be large or run the other way; tested in A549 cells; further: nearly all actives have a fitted effect of over 30% in size; inactives centre near -10
Active calls of the source: *; i = inactive; ? = inconclusive; · = no result given; & = joins results of further samples; [ ] = remark or other dose. On the % scale 0 is the no-effect control and ±100 the full control effect; potency means the concentration at half of the fitted maximal effect.

smiles | Vaccinia Venus | VACV mCherry inh
CCOc1ccccc1NC(=O)Cn1c(=O)ccc2cc(S(=O)(=O)N3CCC(C)CC3)ccc21 | -9% | -11%
Cc1cccc(NC(=O)C(Cc2ccccc2)N2Cc3ccccc3C2=O)c1C (centres undefined) | -9% | i
CCn1c(P(C)(=O)O)nc2cc(NC(=O)c3ccccc3F)ccc21 | -7% | i
CCN(CC)C(=O)c1sc(NC(=O)c2ccoc2C)c(C(=O)OC)c1C | -7% | ·
COc1ccc(C(c2sc3nc(C)nn3c2O)N2CCCCC2)cc1 (centres undefined) | 1% | 5%
CNC(=O)c1c(Cl)cnn1-c1ccc(C)cc1 | 1% | -10%
CC1(C)Cc2noc(N)c2C(C)(C)N1OC(=O)c1ccccc1 | -11% | -10%
N#C/C(=C\c1ccc(C(=O)O)cc1)S(=O)(=O)c1cc(Br)ccc1Br | 12% | 5%
Cc1ccccc1CN1c2ccccc2S(=O)(=O)c2ccccc21 | -2% | 1%
CCCn1nc(NS(=O)(=O)c2ccc(F)cc2)c2cc3ccccc3nc21 | -13% | -1%
CC1CCOC(c2coc3ccccc3c2=O)O1 (centres undefined) | -10% | i
CCNC(=S)NS(=O)(=O)c1ccc(C)cc1 | -9% | -12%
CCCCNC(=O)CCCn1c(=O)c2ccccc2n(Cc2ccc(Cl)cc2)c1=O | -10% | -17%
O=C(COc1ccc(Br)cc1)Nc1ccc2oc(=O)ccc2c1 | -23% | -2%
Cc1cccc(C)c1NC(=S)NC(=O)CCc1ccccc1 | -23% | -8%
CCc1ccccc1NC(=O)CN1CCN(C(=O)CN2C(=O)NC3(CCCCC3C)C2=O)CC1 (centres undefined) | -2% | -6%
CCc1ncc(/C=C2\C(=O)Nc3ccccc32)[nH]1 | ? | -25%
O=C(/C=C/c1ccccc1[N+](=O)[O-])Nc1cccnc1 | -21% | ?
CC(C)(C)n1ncc2c(=O)n(CC(=O)c3ccccc3)cnc21 | -16% | -3%
Cc1nc(CC(=O)Nc2ccc(C(N)=O)cc2)cs1 | 3% | 8%
CCOC(=O)c1c(NC(=O)COc2cc(C)ccc2C(C)C)sc2c1CCCC2 | 2% | -2%
O=C(OCn1nnc2ccccc2c1=O)c1ccc(O)cc1 | 1% | 9%
CCOc1ccccc1-n1c(N)c(C(=O)OC)c2nc3ccccc3nc21 | -4% | 3%
COc1cccc2c1OC1(C)CC2/C(=C(\C)O)C(=O)N1 (centres undefined) | -1% | -11%
Cc1ccc(N2C(=O)CSC2c2cccnc2)c(Cl)c1 (centres undefined) | -14% | ?
COc1ccc(CCN2C(=O)c3[nH]nc(-c4ccccc4O)c3C2c2cccc(Cl)c2)cc1 (centres undefined) | ? | 2%[1.46 µM]
CCC(CC)C(=O)N=C1SC2CS(=O)(=O)CC2N1CCc1ccc(OC)cc1 (centres undefined) | -20% | 0%
c1ccc(-c2cc(-c3nnco3)c3ccccc3n2)nc1 | -5% | 3%
O=S(=O)(c1ccc(F)cc1)N1CCN(c2ncnc3c2cnn3-c2ccccc2)CC1 | 8% | -5%
Cc1ccc(N(C(=O)CNC(=O)c2ccco2)C(C(=O)NCC2CCCO2)c2ccccc2)c(C)c1 (centres undefined) | -13% | -3%
Cc1noc(C)c1COc1ccc(C(=O)OCC(=O)NC23CC4CC(CC(C4)C2)C3)cc1 | -5% | ·
CC(=O)Nc1ccc(C(=O)CN2C(=O)CSC2=O)cc1 | -9% | -11%
CC(=O)N(CCC(Cc1ccccc1)c1ccc2c(c1)OCO2)Cc1ccccc1F (centres undefined) | -10% | -16%
COc1cc(OC)cc(-n2c(=O)c3ccccc3n(Cc3ccccc3C#N)c2=O)c1 | -9% | -17%
COC(=O)C1=CO[C@@H](O[C@@H]2O[C@H](CO)[C@@H](O)[C@H](O)[C@H]2O)C2C1C=C[C@@]2(O)CO (some centres undefined) | -12% | i
CCOC(=O)C1(C(F)(F)F)N=C(c2cccnc2)OC(N2CCOCC2)=N1 (centres undefined) | -8% | ·
COc1ccc(NC(=S)Nc2cc(C)[nH]n2)cc1Cl | -4% | ?
O=[N+]([O-])c1ccc2[nH]cc(S(=O)(=O)N3CCN(c4cccc(Cl)c4)CC3)c2c1 | ? | ?
Cn1nc(C(C)(C)C)cc1NC(=O)Nc1ccc(Cl)cc1 | -5% | -8%
CCOc1ccc(C2=C(C=C(C#N)C#N)C(c3ccccc3)c3ccccc3O2)cc1 (centres undefined) | -19% | -24%
CC(C)(C)c1nc2scc(-c3ccc(Br)cc3)c2c(=O)o1 | -2% | i
Cc1ccc(CSC2=NCCN2S(=O)(=O)c2ccc(F)cc2)cc1 | -29% | -13%
O=C1c2ccccc2[C@@H]2C[C@@H](O)[C@H](Nc3ccccc3Cl)CCN12 | -2% | i
CC(=O)c1ccc(NC(=O)CCn2nc(C)c(S(=O)(=O)N3CCC(C)CC3)c2C)cc1 | -9% | -16%
CC(Sc1nnc(-c2ccco2)n1C)C(=O)Nc1nccs1 (centres undefined) | 7% | -11%
Cc1ccc(C(=O)N2CCCCC2)cc1S(=O)(=O)N1CCCCCC1 | -4% | 4%
CC/C(=C(\c1ccccc1)c1ccc(OCCN(C)C)cc1)c1ccccc1 | ? | -19%&-11%
O=C(/C=C/c1ccc(Cl)cc1Cl)NCc1ccco1 | -24% | -11%

2 of the compounds above, field by field:
SMILES: Cc1ccc(C(=O)N2CCCCC2)cc1S(=O)(=O)N1CCCCCC1
  Vaccinia Venus = -4%	VACV mCherry inh = 4%
SMILES: CC/C(=C(\c1ccccc1)c1ccc(OCCN(C)C)cc1)c1ccccc1
  Vaccinia Venus = ?	VACV mCherry inh = -19%&-11%

Later entries
smiles | Vaccinia Venus | VACV mCherry inh
CCCCNC(=O)O[C@@H]1C[C@@H]2CCN3C(=O)CCC[C@H]([C@H]1CC)[C@H]23 | -6%&-18% | -26%
Cc1cccc2cc(CN(Cc3cccs3)C(=S)NCc3ccco3)c(=O)[nH]c12 | -6% | -28%
O=C(c1ccc(CN2CCOCC2)cc1)N1CCN(c2cccc(Cl)c2)CC1 | -15% | ·
COc1ccc(C)cc1NC(=O)CSc1nnc(COc2ccc(C)cc2)n1Cc1ccco1 | -33% | ·
CCCCC1=CC2=C(c3ccco3)C(=O)C(C)(OC(=O)c3ccc(OC)cc3)C(=O)C2=CN1Cc1ccccc1 (centres undefined) | -5% | ?
CCOC(=O)c1c(NC(=O)C(C)Sc2cn(CCNC(=O)c3ccc(OCC)cc3)c3ccccc23)sc2c1CCC2 (centres undefined) | -17% | -15%
CN(C)CCNC(=O)Cn1nc(N2CCN(c3ccccc3)CC2)ccc1=O | 10% | 15%
CC1=C(C)C(=O)OC(C(C)C2CCC3C4CC=C5CC(OC6OC(COC7OC(CO)C(O)C(O)C7O)C(O)C(O)C6O)CC(O)C5(C)C4CCC23C)C1 (centres undefined) | 8% | -6%
CCOC(=O)c1ccc(NC(=O)Cn2c3ncccc3c(=O)n2-c2ccc(C)c(C)c2)cc1 | -6%[7.34 µM] | -10%[7.34 µM]
CCCn1nc(C(=O)Nc2ccc3c(c2)OCCO3)c2ccccc2c1=O | -18% | -13%
Cc1ccc(Cc2c(-c3ccc(F)cc3)nc3ccc(Cl)cn23)cc1 | -13% | -1%
CC(C(=O)NCC1CCCCC1)N(C)Cc1ccc(Cl)cc1 (centres undefined) | -18% | -15%
CCN(CC)C1CCN(Cc2c(C(=O)N3CCCCCCC3)nc3ccc(Cl)cn23)C1 (centres undefined) | -5% | -13%
COc1cc(OC)cc(C(=O)NNC(=O)C2CCC2)c1 | 2% | i
COc1ccccc1NC(=O)CN(c1ccc(C23CC4CC(CC(C4)C2)C3)cc1)S(C)(=O)=O | ? | -18%
C[C@@H]1CN([C@H](C)CO)C(=O)CCCn2nncc2CO[C@@H]1CN(C)S(=O)(=O)c1ccc(C#N)cc1 | -4% | -1%
COCCNC(=O)c1ccc2c(c1)nc(C)n2-c1cc(OC)c(OC)c(OC)c1 | -21% | ·
O=C(O)c1cc(S(=O)(=O)N2CCCc3ccccc32)ccc1Cl | -20% | -17%
CCOC(=O)C1=NN(c2ccc([N+](=O)[O-])cc2)CC1C(=O)OC (centres undefined) | -1% | i
Cc1ccc(C(=O)CSc2cnc3ccccc3n2)cc1C | 13% | -14%
CC(C)(C)OC(=O)N/N=C/c1c[nH]c2ccccc12 | -15% | -11%
O=C(Nc1ccc(C(=O)O)cc1)/C(=C\c1ccco1)NC(=O)c1ccco1 | 11% | -13%
Cc1c(N=c2scc(-c3ccccc3)n2CCO)c(=O)n(-c2ccccc2)n1C | -21% | -12%
CC1(C)CC(=O)C(C=NCCN2CCN(C3CC(=O)N(c4ccc(F)cc4)C3=O)CC2)=C(O)C1 (centres undefined) | 0% | -11%

Random excerpt: five entries already listed.
smiles | Vaccinia Venus | VACV mCherry inh
Cc1c(N=c2scc(-c3ccccc3)n2CCO)c(=O)n(-c2ccccc2)n1C | -21% | -12%
Cc1ccc(C(=O)CSc2cnc3ccccc3n2)cc1C | 13% | -14%
COc1ccccc1NC(=O)CN(c1ccc(C23CC4CC(CC(C4)C2)C3)cc1)S(C)(=O)=O | ? | -18%
O=C(O)c1cc(S(=O)(=O)N2CCCc3ccccc32)ccc1Cl | -20% | -17%
COc1cc(OC)cc(C(=O)NNC(=O)C2CCC2)c1 | 2% | i

The results go on.
smiles | Vaccinia Venus | VACV mCherry inh
CCCN(C)C1CN(Cc2cn(Cc3ccc(C(F)(F)F)cc3)nn2)S(=O)(=O)C1 (centres undefined) | -12% | -13%
O=C1NC[C@@H](Cc2ccc(O)cc2)N(CCc2cc(C(F)(F)F)cc(C(F)(F)F)c2)C1=O | -3% | 3%
C=CCn1c(=O)/c(=C\c2ccsc2)s/c1=C(/C#N)C(=O)NCCN1CCOCC1 | -8% | -7%
CCOc1ccc(CCN2C(=O)C(=O)N([C@@H](CC(C)C)CN3CCC[C@H]3CN3C(=O)C(=O)NC[C@@H]3Cc3ccccc3)C[C@@H]2CC(C)C)cc1 | -26% | ?
C/C=C\C=C\C(=O)Nc1cccc(C2=NOC3(C2)C[C@H](C(N)=O)N(C(=O)c2ccccc2C(=O)c2ccccc2)C3)c1 (some centres undefined) | -22% | -11%
Cc1ccc2nc(/C(C#N)=C\c3cc(O)ccc3[N+](=O)[O-])[nH]c2c1 | -8% | 1%
COc1cc(NC(=O)C(F)(F)F)cc(OC)c1 | -4% | -13%
Cc1cc(-c2ccc(C)c(S(=O)(=O)N3CCN(c4cccc(C(F)(F)F)c4)CC3)c2)on1 | -11% | -19%
Cc1ccc(SCCC(=O)Nc2ccc(OCc3ccccc3)cc2)cc1 | -15% | -1%
COc1ccc(NC(=O)c2nc[nH]c2C(=O)N(C)CCO)cc1 | -12% | -9%
CC1CC(c2ccccc2)NS(=O)(=O)O1 (centres undefined) | -1% | -22%
O=C(NCc1ccncc1)Nc1ccccc1 | -4% | -10%
COc1nc(C)nc(NC(=O)NS(=O)(=O)c2ccccc2Cl)n1 | -6% | i
CN1CCN(S(=O)(=O)CC2(C)C3CCC2(C)C(=O)C3Br)CC1 (centres undefined) | -9% | -5%
COc1ccc2oc(C(=O)Nc3ccc(N4CCOCC4)cc3)c(C)c2c1 | -8% | i
CCCCSCCCNC(=O)CN1C(=O)COc2ccc(S(=O)(=O)N3CCC(C)CC3)cc21 | -11% | -20%
Cc1cc(=O)n(CCC(=O)O)c2ccccc12 | -11% | ·
Nc1nc2c(ncn2[C@@H]2O[C@H](CNCc3ccc(OCCCN4CCOCC4)cc3)[C@@H](O)[C@H]2O)c(=O)[nH]1 | 4% | 8%
CCOC(=O)c1sc2nc(C)nc(NCCc3ccc(S(N)(=O)=O)cc3)c2c1C | -14% | -23%
Clc1ccccc1N/N=C/c1ccc2c(c1)OCO2 | -7% | i
Cc1ccc(S(=O)(=O)N2[C@@H](c3ccc(Br)cc3)C(C(=O)O)=CC[C@H]2c2cccc(Cl)c2)cc1 | -24% | -15%
Cc1cc(C)n(-c2cccc(C(=O)O)c2)n1 | 8% | -17%
COc1cc(OC)c(-n2cc(-c3ccc(Cl)cc3)[nH]c2=O)cc1Cl | -13% | -17%
O=c1c2ccccc2nc(CNCC2CCCO2)n1-c1ccc(F)cc1 (centres undefined) | -6% | i
COc1ccc(CCNC(=O)C(=O)NCC(c2ccc3c(c2)OCO3)N2CCOCC2)cc1OC (centres undefined) | -4% | 4%
COC(=O)CCCC(=O)NCC1(N(C)Cc2ccccc2)Cc2ccccc2C1 | -5% | -12%
O=C(N/N=C/c1ccncc1)c1ccc(COc2cccc3cccnc23)cc1 | -5% | -12%
CCS(=O)(=O)NCc1csc(C)n1 | 3% | ·
COC(=O)CSc1nnnn1-c1cccc2ccccc12 | 6% | i
O=C(CSc1ccc(-c2ccccn2)nn1)c1ccc([N+](=O)[O-])cc1 | -4% | -14%
N#Cc1c(NC(=O)CCN2C(=O)c3ccccc3C2=O)oc(-c2ccccc2)c1-c1ccccc1 | -22% | -5%
CCOc1ccc(-c2csc(NC(=O)c3cccc(N4C(=O)CCC4=O)c3)n2)cc1 | -9% | -19%
C[N+]1(CCN2C(=O)C3CC=C(Cl)CC3C2=O)CCOCC1 (centres undefined) | -23% | ·
